High-throughput results: PubChem, National Center for Advancing Translational Sciences (NCATS)
StopGo reporter – High Throughput Screening for Foot and Mouth Disease Virus Antivirals. 410,000 compounds, 1.2% hits. Potency, µM (top dose mostly 57.9 µM), without a hit: at the highest dose signal change, negative = less light. human cells with a luciferase reporter of 2A StopGo recoding; control for the full effect not named in the record; active = well fitted falling curve with a large enough effect; inconclusive = small, poorly fitted or top-dose-only effect; inactive = no such curve, though single readings can be large or run the other way; tested in HEK293T cells; also: % is scaled to controls: 0 for no effect and ±100 for the full control effect; nearly all actives have a fitted effect of over 45% in size; luciferase light after 4 h
Cruzain inh noDet – qHTS Assay for Promiscuous and Specific Inhibitors of Cruzain (without detergent). Cruzipain (Trypanosoma cruzi), P25779. purified cruzain, Z-FR-AMC fluorescence, no detergent. Potency, µM, inactives show max response, negative = inhibition, actives largely listed as inhibitors. 200,000 compounds, 2.3% hits. AID 1476, 2009;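 also: plate controls were enzyme without inhibitor for no effect and buffer without enzyme for full effect; nearly all actives have a fitted effect of over 40% in size; top concentration of the series not given in the record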
Target sequence (P25779 123-467 limits assumed): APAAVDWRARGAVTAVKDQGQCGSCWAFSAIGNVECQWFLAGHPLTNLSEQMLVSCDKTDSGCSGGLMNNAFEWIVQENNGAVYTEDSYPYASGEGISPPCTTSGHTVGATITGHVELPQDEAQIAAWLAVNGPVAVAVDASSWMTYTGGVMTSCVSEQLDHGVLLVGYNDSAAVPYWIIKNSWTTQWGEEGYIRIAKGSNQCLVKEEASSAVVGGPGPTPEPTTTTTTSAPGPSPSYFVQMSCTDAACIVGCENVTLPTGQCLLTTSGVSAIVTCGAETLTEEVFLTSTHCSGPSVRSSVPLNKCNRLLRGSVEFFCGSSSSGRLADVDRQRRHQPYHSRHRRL
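Detergent-free condition (0.00005% Triton X-100) in acetate buffer pH 5.5 with DTT. 1.5 nM enzyme and compound were pre-mixed 15 min, then 2 uM Z-FR-AMC substrate added; reaction progress from fluorescence change between first and third reads (60 s).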
SARS PLpro yeast – qHTS of Yeast-based Assay for SARS-CoV PLP. S. cerevisiae expressing SARS-CoV PLpro, growth rescue; control for the full effect not named in the record. Potency, µM (series often up to 32.9 µM), for the others: at the top dose activity, positive = growth rescue. 330,000 compounds, 0.19% hits. AID 485353, 2010; active means well fitted rising curve with a large enough effect; inconclusive means small, poorly fitted or top-dose-only effect; inactive means no such curve, though single readings can be large or run the other way; also: 0% is about no effect; nearly all actives have a fitted effect of over 55% in size; growth read by luminescence after 48 h
RE007 growth inh – qHTS Assay for Inhibitors of the HIV-1 protein Vpr; S. pombe RE007 Vpr strain, BacTiter-Glo ATP luminescence, 24 h; control for the full effect not named in the record; Potency, µM (top dose mostly 92.2 µM), inactives show at the highest dose activity change, negative = less growth; 360,000 compounds, 0.21% hits; active = well fitted falling curve with a large enough effect; inconclusive = small, poorly fitted or top-dose-only effect; inactive = no such curve, though single readings can be large or run the other way;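 also: % is scaled to controls: 0 for no effect and ±100 for the full control effect; nearly all actives have a fitted effect of over 50% in size; the assay follows cell death caused by Vpr and the record does not say whether a fall means rescue or toxicity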
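Fission yeast strain RE007, carrying one chromosomally integrated HIV-1 vpr copy, was seeded at OD 0.01 in PMG+AL medium with 23 nL pinned compound. After 24 h at 30 °C and 99% humidity, viability was read by BacTiter-Glo luminescence.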
Lassa entry inh – qHTS for Inhibitors of binding or entry into cells for Lassa Virus; Lassa virus pseudotype entry inhibition, cell reporter; control for the full effect not named in the record; Potency, µM (doses to about 37.9 µM), without a hit: at the highest dose activity change, negative = inhibition, most hits filed as inhibitors; 300,000 compounds, 1.2% hits; active means well fitted inhibition curve with a large enough effect; inconclusive means small, poorly fitted or top-dose-only effect, or effect the other way; inactive means flat fitted curve, though single readings scatter; tested in HEK293 cells; also: % is scaled to controls: 0 for no effect and ±100 for the full control effect; nearly all actives have a fitted effect of over 50% in size; luciferase read-out
Cruzain inh Det – qHTS Assay for Promiscuous and Specific Inhibitors of Cruzain (with detergent) | purified cruzain, Z-FR-AMC fluorescence, 0.01% Triton | Potency, µM, for the others: max response, negative = inhibition, usual class: inhibitors | 200,000 compounds, 0.43% hits;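 also: plate controls were neutral wells for no effect and buffer without enzyme for full effect; nearly all actives have a fitted effect of over 40% in size; top concentration of the series not given in the record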
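Read-out: AMC fluorescence (360 nm excitation, 450 nm emission), four reads over 2 min, first-to-third difference used. Conditions: cruzain 1.5 nM, Z-FR-AMC 2 uM, pH 5.5 acetate, 5 mM DTT, 0.01% Triton X-100.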
NS1 function inh – qHTS Assay for Inhibitors of Influenza NS1 Protein Function | Potency, µM (highest dose often 46.1 µM), for inactives: top-dose activity, positive = more growth | S. cerevisiae slowed by influenza A NS1, growth recovery by OD600 | 270,000 compounds, 0.4% hits | AID 2326, 2010; active means well fitted rising curve with a large enough effect; inconclusive means small, poorly fitted or top-dose-only effect; inactive means no such curve, though single readings can be large or run the other way; also: nearly all actives have a fitted effect of over 50% in size
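S. cerevisiae expressing influenza A NS1, grown in glucose, washed, then diluted 1:100 into pH 6.0 -URA galactose medium with 23 nl compound. Growth recovery read as OD600; NS1-free strain serves as control.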
MARV entry inh – qHTS for inhibitors of binding or entry into cells for Marburg Virus | 300,000 compounds, 1.8% hits | Marburg virus pseudotyped entry inhibition, cell reporter; control for the full effect not named in the record; about a third of the inactives were read at about 46 µM | Potency, µM (top dose mostly 37.8 µM), for inactives: at the highest dose activity change, negative = inhibition, hits mostly inhibitors; active = well fitted inhibition curve with a large enough effect; inconclusive = small, poorly fitted or top-dose-only effect, or effect the other way; inactive = flat fitted curve, though single readings scatter; tested in HEK293 cells; about a fifth of its hits are not listed in these tables; also: % is scaled to controls: 0 for no effect and ±100 for the full control effect; luciferase read-out
* hit, by the source's call; ? = inconclusive; . = not tested or not shown; & = joins results of further samples; [ ] = remark or other dose. Unless noted, calls follow the shape of the dose curve; as a rule, active = well fitted curve in the direction sought with a large enough effect; inconclusive = small, poorly fitted or top-dose-only effect, or another doubt; inactive = no such curve, though single readings can be large; an effect the other way counts as inactive or inconclusive. Potency is read from the fitted curve at half-maximal effect.

Order of results – NS1 function inh	MARV entry inh	StopGo reporter	Cruzain inh Det	Cruzain inh noDet	SARS PLpro yeast	RE007 growth inh	Lassa entry inh
- CSCSC1=C(C#N)C(c2ccc(Cl)cc2)C(C(C)=O)=C(C)N1 (stereo not given)
 : -2%	1%	.	-4.9%	-28%	-13%	.	.
- O=C(CSc1nc2c([nH]c3ccccc32)c(=O)n1-c1ccc(F)cc1)N1CCCc2ccccc21
 : .	.	16%	-0.4%	4%	.	.	6%[46.1 µM]
- COc1ccccc1NC(=O)CC(=O)c1cccc([N+](=O)[O-])c1
 : 6%	4%	-2%	.	.	1%	4%	?
- COc1ccc(OC)c(S(=O)(=O)N2CC=C(c3c(C)n(CC(=O)N4CCCC4)c4ccccc34)CC2)c1
 : .	4%[46.1 µM]	-23%	-6.2%	?	.	.	-5%[46.1 µM]
- COc1ccc(OC)c(NC(=O)COC(=O)c2ccc(S(=O)(=O)N3CCOCC3)cc2)c1
 : -9%	?	-7%	6.7%	?	6%	7%	-7%
- O=C(NCCOc1ccccc1)C1CCC(=O)N(CCN2CCOCC2)C1 (stereo not given)
 : -1%	.	-4%	.	.	-4%	-3%	.
- CN(c1ccc(F)cc1)S(=O)(=O)c1ccc(Cl)c(C(=O)NCC(c2ccco2)N2CCCCC2)c1 (stereo not given)
 : .	?	?	.	.	6%	-9%	?
- CNC(C)Cc1ccccc1Sc1ccc(O)cc1 (stereo not given)
 : -3%	?	0%	-2.5%	-4%	5%	-12%	-21%
- Brc1ccccc1Cn1cnc2ccccc21
 : -7%	.	-19%	.	.	4%	-12%	.
- CCOC(=O)CN1C(=O)SC(Nc2ccc(C)cc2)C1=O (stereo not given)
 : -4%	?	1%	.	.	1%	-3%	7%
- CCOC(=O)C(=Cc1ccccc1OC)C(=O)OCC
 : -46%	?	28µM*	.	.	-7%	-17%	?
- COc1ccccc1-n1c(/C=C/c2c(C)n(C)c3ccccc23)nc2ccccc2c1=O
 : .	.	?	-6.0%	?	.	.	?
- COc1ccccc1C(=O)NC1CCN(C(=O)Nc2ccc(F)cc2)CC1
 : -1%	-2%[46.1 µM]	-21%	.	.	0%	0%	13%
- CCOC(=O)C1CCCN(c2ccc([N+](=O)[O-])c3nonc23)C1 (stereo not given)
 : .	0%[46.1 µM]	0%	.	.	-4%	-7%	-15%[46.1 µM]
- COc1ccc(C2CN=NC23CCc2ccccc2C3=O)cc1 (stereo not given)
 : 0%	.	10%	.	.	-1%	-5%	.
- O=S(=O)(c1ccccc1)N1CCN(c2ncnc3scc(-c4ccccc4)c23)CC1
 : 14%	?	-12%	.	.	-32%	-14%	?
- COc1ccc(N2CCN(C(C)C(=O)N(C)Cc3ccccc3)CC2)cc1 (stereo not given)
 : -23%	-12%[46.1 µM]	-10%	.	.	0%	-10%	?
- CCOC(=O)Cn1c(=O)oc2cc(S(=O)(=O)Nc3cc(Cl)ccc3OC)ccc21
 : 0%	.	-6%	1.5%	-11%	-3%	-1%	.
- CCN1CCN(CC#CCOc2ccccc2OC)CC1
 : 0%	-2%	-18%	.	.	12%	25%	?
- O=C1CCCN1CCC1CCN(C2CC(=O)N(Cc3ccc(N4CCCC4=O)cc3)C2=O)CC1 (stereo not given)
 : -8%	-19%	.	0.4%	4%	-16%	?	0%
- Cc1ccc(CN=c2c([N+](=O)[O-])nn(-c3cccc(C)c3)n2O)cc1
 : -5%	.	19%	.	.	1%	-20%	.
- Cc1cc(SC(C)C(=O)NCC(=O)Nc2ccc(F)c(F)c2F)nc2ccccc12 (stereo not given)
 : 6%	13%	-15%	0.7%	?	5%	?	-3%
- CN(C)/C=C(\C=N\OCc1ccc(Cl)cc1Cl)C(=O)Nc1ccc(Cl)c(Cl)c1
 : -44%	2%	.	-6.0%	20µM*	-29%	.	.
- O=C(Cn1cccc1C(=O)c1ccccc1)NCCN1CCCCCC1
 : -6%	-1%	?	0.8%	-9%	-8%	-5%	-1%
- CC(=O)N1N=C(N)SC12CCCC2
 : 3%	20%[46.1 µM]	11%	.	.	-3%	8%	-28%
- CCn1cc(C(=O)N2CCN(c3ccccc3OC)CC2)c(=O)c2cc(S(=O)(=O)N3CCCCC3)ccc21
 : .	9%[46.1 µM]	-6%	-0.4%	5%	.	.	9%[46.1 µM]
- CCOC(=O)c1c(N)nn(C(C)=O)c1-c1ccccc1
 : -34%	16%	-25%	-0.7%	10%	-2%	-2%	-2%
- COc1ccc(NC(=O)CN(C)C(=O)CCC(=O)c2ccc(C)cc2)cc1
 : .	26%	15%	.	.	8%	?	12%
- CC1CN(C2=NC(=O)/C(=C/c3ccncc3)S2)CC(C)O1 (stereo not given)
 : 3%	-7%[46.1 µM]	-21%	.	.	-2%	-20%	20%[46.1 µM]
- Cc1cc(=O)oc2c(CN(C)Cc3ccccc3)c(O)ccc12
 : -3%	-4%	-12%	20µM*	?	2%	-3%	4%
- CCCCCSc1ncnc2c1sc1nc(N3CCOCC3)c3c(c12)CCCC3
 : .	21%[46.1 µM]	13%	-0.9%	13%	.	.	13%[46.1 µM]
- Cc1ccc2nc(N/N=C\c3ccc([N+](=O)[O-])o3)nc(-c3ccccc3)c2c1
 : 3%	10µM*	-29%	-1.9%	?	-11%	-19%	?
- COc1ccc(-n2nc([N+](=O)[O-])c(=NC3CCN(Cc4ccccc4)CC3)n2O)cc1
 : .	?	29%	.	.	-3%	-6%	-1%[46.1 µM]
- C[n+]1ccc(/C=C/c2ccccc2O)c2ccccc21
 : .	3%[46.1 µM]	-14%	.	.	1%	-23%	-3%
- O=C(NCCO)/C(=C/c1ccc(Br)cc1)NC(=O)c1cccs1
 : 1%	-2%	7%	8.8%	-1%	-3%	6%	7%
- Nc1nc2cc(S(=O)(=O)NC3=NCCCCC3)ccc2s1
 : 12%	.	-18%	.	.	3%	24%	.
- Cc1sc2c(c1C)c(=O)n(CCc1ccccc1)c(=O)n2Cc1cccc(F)c1
 : .	-1%[46.1 µM]	?	-1.4%	-20%	.	.	-1%[46.1 µM]
- O=C1/C(=C/c2ccc3c(c2)OCO3)Oc2cc(OCC(=O)N3CC(O)C[C@H]3C(=O)O)ccc21 (stereo not given in full)
 : 24%	.	-14%	.	.	5%	2%	.
- Nc1nnc(SCC(=O)Nc2cccc(S(N)(=O)=O)c2)s1
 : .	6%[46.1 µM]	0%	.	.	-1%	8%	-1%[46.1 µM]
- Cc1nc2ccccn2c1C(=O)NN=C1CCCC1
 : .	9%	3%	.	.	3%	-13%	11%
- COc1ccc(S(=O)(=O)N2CCCCC2)cc1NC(=O)c1ccc2ccccc2n1
 : 19%	?	20%	-2.0%	-25%	-1%	-10%	5%
- COc1ccc(NC(=O)c2c(-c3c(Cl)cccc3Cl)noc2C)cn1
 : -1%	10%	1%	.	.	-3%	6%	4%
- COC(=O)c1sc2nc3c(cc2c1N)C(=O)CC(C)(C)C3
 : -3%	-4%	.	3.6%	1%	7%	-2%	13%
- O=C(/C=C/c1ccc2c(c1)OCO2)Nc1nc(-c2ccc(F)cc2F)cs1
 : 0%	3%	.	-4.7%	7.9µM*	-2%	.	18%
- Cc1nn(-c2ccccc2)c2c1cc1c(=O)n(C)c(=O)nc-1n2-c1ccccc1F
 : 0%	4%[46.1 µM]	4%	.	.	0%	-10%	5%[46.1 µM]
- COC(=O)c1cccc([N+](=O)[O-])c1CS(=O)(=O)c1ccc(C)cc1
 : 0%	-8%[46.1 µM]	-12%	.	.	-1%	2%	0%
- CCn1c(SCc2ccccc2)nnc1-c1ccc(S(=O)(=O)N2CCCCC2)cc1
 : -14%	-9%&-9%	?	0.6%	1%	-4%	15%	-1%
- O=C(Nc1ccnn1C1CCN(C2CCC2)CC1)c1ccccc1Cl
 : 15%	-1%[46.1 µM]	-17%	.	.	-4%	-7%	0%
- S=c1[nH]nc(-c2ccncc2)n1Cc1ccco1
 : 16%	26%	1%	0.1%	11%	-11%	-1%	-4%
- CCn1ncc(CN2CCC(C(=O)Nc3cccc(-c4cccc(F)c4)c3)CC2)c1C
 : -12%	.	?	.	.	-1%	4%	.
- O=C(NCCN1CCOCC1)c1cc(-c2ccc(Cl)c(Cl)c2)on1
 : 1%	11%[46.1 µM]	-5%	.	.	-1%	17%	12%
- COCCCNC(=O)C1CCN(Cc2nc(-c3ccc(OC)c(OC)c3)oc2C)CC1
 : .	-16%[46.1 µM]	3%	2.0%	-3%	.	.	-13%[46.1 µM]
- CC(NC(=O)c1ccc([N+](=O)[O-])cc1[N+](=O)[O-])c1ccc(-c2ccccc2)cc1 (stereo not given)
 : 12%	?	-23%	-7.9%	8%	6%	4%	11%
- O=C(NCCc1ccc(Cl)cc1)c1n[nH]c2ccccc12
 : .	-1%	48%[activator]	.	.	-8%	-8%	?
- CC1=CC(C)(C)Nc2ccc(OS(=O)(=O)c3ccc(C)cc3)cc21
 : 13%	-17%	-23%	-6.0%	2%	-3%	7%	-14%
- COc1ccc(CCNS(=O)(=O)c2ccc(S(=O)(=O)N3CCCC3)cc2)cc1OC
 : -16%	-30%	.	3.2%	5%	11%	5%	-26%
- CCC(c1nnnn1CS(=O)(=O)c1ccc(C)cc1)N1CCC(C(N)=O)CC1 (stereo not given)
 : 13%	?	-6%	.	.	4%	0%	9%[46.1 µM]
- COc1ccc(CNCc2cccc(C)c2)cc1
 : -8%	2%	-17%	.	.	-2%	-3%	-17%
- O=C1C(Cl)=C(NCCCN2CCOCC2)C(=O)c2ccccc21
 : .	?	-29%	.	.	.	-28%	?
- Nc1cc(=O)[nH]c(SCCSc2ccccc2)n1
 : 7%	.	-17%	.	.	1%	15%	.
